FGF22 binding = binders of recombinant human FGF22 by thermal shift; SYPRO orange fluorescence; percent of sucrose octasulfate shift, DMSO zero; hit rate 1.5% among 340,000; Q9HCT0; calls only at 9.99 µM;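 active = melting point raised past a set limit in the mean and every replicate; three in four hits are not shown here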
Target sequence (Q9HCT0 whole entry, looked up): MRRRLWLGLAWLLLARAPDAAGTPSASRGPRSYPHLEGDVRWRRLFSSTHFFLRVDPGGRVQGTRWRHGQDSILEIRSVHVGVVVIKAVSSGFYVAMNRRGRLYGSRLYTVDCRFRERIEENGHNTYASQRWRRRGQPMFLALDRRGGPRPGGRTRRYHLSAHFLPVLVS
rRNA inh HTS = inhibitors of bacterial rRNA selective over humanized ribosomes. GFP signal change (wild-type ribosome), % (no concentration beside the values). hit rate 1.6% among 350,000. E. coli WT GFP vs humanized-ribosome RFP mutants, fluorescence, 24 h; hits give low values; DMSO median 0, no signal -100. AID 720706;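 active = significant combined selectivity score with lowered wild-type GFP, culture density cut under 30%, mutant RFP and density less affected; inactive = any of these conditions unmet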; note: one replicate is shown; some compounds called inactive have numbers as strong as hits
rRNA inh HTS OD600 = also measured in rRNA inh HTS; calls as there; OD600 change, %; measured here: OD600 growth;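 optical density of the mix in the first replicate; 0 = DMSO median and -100 = no signal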
rRNA inh HTS RFP = further read-out of rRNA inh HTS, marked with its call; RFP signal change, %; measured here: RFP humanized mutant strains;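 first replicate; 0 = DMSO median and -100 = no signal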
An asterisk follows results filed as active; i = inactive; & = joins results of further samples. Some of the compounds tested (hit frequency here may not be typical).

SMILES	FGF22 binding	rRNA inh HTS	rRNA inh HTS OD600	rRNA inh HTS RFP
C[C@@H]1CN([C@H](C)CO)C(=O)Cc2cc(NC(=O)Nc3ccc4c(c3)OCO4)ccc2O[C@H]1CN(C)S(=O)(=O)c1cn(C)cn1	i	1.2	8.0	0.2
CC(C)C#Cc1ccc2c(c1)O[C@H](CN(C)C(=O)NC(C)C)[C@H](C)CN([C@@H](C)CO)S2(=O)=O	i	-3.1	-3.0	-2.6
Cc1noc(C)c1NC(=O)Nc1ccc2c(c1)CC(=O)N([C@@H](C)CO)C[C@H](C)[C@@H](CN(C)S(=O)(=O)c1cn(C)cn1)O2	i	1.9	9.2	0.3
COc1ccc(S(=O)(=O)N(C)C[C@H]2OCCCC[C@H](C)Oc3ccc(NC(=O)Nc4ccccc4)cc3C(=O)N([C@@H](C)CO)C[C@@H]2C)cc1	i	-2.7	4.5	-0.6
COc1ccc(S(=O)(=O)Nc2ccc3c(c2)C(=O)N([C@@H](C)CO)C[C@H](C)[C@H](CN(C)S(=O)(=O)c2ccc(OC)cc2)OCCCC[C@@H](C)O3)cc1	i	-1.8	6.8	-0.9
CCNC(=O)Nc1ccc2c(c1)C(=O)N(C)[C@@H]1CC[C@H](CC(=O)NCC3CC3)O[C@@H]1CO2	i	3.6	7.0	-2.2
Cc1noc(C)c1NC(=O)Nc1ccc2c(c1)CC(=O)N([C@H](C)CO)C[C@@H](C)[C@@H](CN(C)C(=O)NC(C)C)O2	i	1.5	-1.2	2.4
Cc1noc(C)c1NC(=O)N(C)C[C@@H]1OCCCC[C@@H](C)Oc2ccc(NS(C)(=O)=O)cc2C(=O)N([C@@H](C)CO)C[C@H]1C	i	1.9	13.2	-0.5
COc1cccc(-c2ccc(C3[C@@H]4CN(C(=O)Nc5ccccc5F)C[C@H]3N4)cc2)c1 (stereo partly specified)	i	-12.5&-3.8	-21.0&-17.1	0.9&-3.8
Cc1[nH]nc2c1C(c1ccc(Br)cc1)N(Cc1ccccc1)C2=O (stereo unspecified)	i	-25.4*	-11.8*	-2.3*
CN1c2ccc(-c3cccc(C#N)c3)cc2[C@@H]2[C@@H](CCN2C(=O)c2cccc(F)c2)[C@@H]1CO	i	-23.5	-40.8	2.5
CN(C)CC(=O)N1CC[C@@H]2[C@H]1c1cc(-c3ccccc3F)ccc1N(C)[C@@H]2CO	i	-3.3	2.2	-0.2
COCc1cc(N2CCN(C(=O)OC(C)(C)C)C[C@@H]2C)ccc1Br	i	-36.2	-44.1	-0.7
OC(c1ccccc1)(c1ccccc1)C1CCN(CCCOc2ccc(-c3ccncc3)cc2)CC1	i	-54.5	-79.1	-17.4
C[C@H](CO)N1C[C@H](C)[C@@H](CN(C)S(=O)(=O)c2cn(C)cn2)Oc2ccc(NS(=O)(=O)c3cccs3)cc2C1=O	i	3.6	4.7	-0.7
COc1ccc(-c2ccc3c(c2)[C@@H]2[C@@H](CCN2C(=O)c2ccc4c(c2)OCO4)[C@@H](CO)N3)cc1	i	-7.5	-0.2	6.4
COc1ccccc1S(=O)(=O)N1CC[C@@H]2[C@H]1c1cc(-c3ccccc3F)ccc1N(C)[C@H]2CO	i	2.4	6.6	2.1
CCCCc1nnn2c1C1c3cc(-c4cccnc4)ccc3CCN1C(=O)C2 (stereo unspecified)	i	-14.7	-12.5	1.0
CN1CCN(C(=O)C[C@H]2C[C@@H]3c4cc(NC(=O)Nc5ccccc5F)ccc4O[C@@H]3[C@H](CO)O2)CC1	i	1.7	0.0	1.0
C[C@@H]1CN([C@@H](C)CO)C(=O)Cc2cc(NC(=O)CCC(F)(F)F)ccc2O[C@H]1CN(C)Cc1ccc(Oc2ccccc2)cc1	i	-3.4	-1.3	7.9
C[C@H](O)C#Cc1ccc2c(c1)O[C@H](CN(C)C(=O)c1ccncc1)[C@@H](C)CN([C@H](C)CO)S2(=O)=O	i	1.5	11.7	-3.1
Cc1ccc(S(=O)(=O)Nc2cccc3c2O[C@@H](CN(C)S(=O)(=O)c2ccc(F)cc2)[C@H](C)CN([C@@H](C)CO)C3=O)cc1	i	2.4	6.8	1.2
C[C@@H]1CCCCO[C@@H](CN(C)S(=O)(=O)c2cccs2)[C@H](C)CN([C@H](C)CO)C(=O)c2cc(NC(=O)Cc3ccccc3)ccc2O1	i	-3.9	-7.5	1.9
CC(C)C(=O)Nc1ccc2c(c1)C(=O)N(C)[C@@H]1CC[C@H](CC(=O)NCCCN(C)C)O[C@@H]1CO2	i	1.8	-8.1	1.2

Filtered by structure, the entries above with a thiophene ring, fused or not (2)
SMILES	FGF22 binding	rRNA inh HTS	rRNA inh HTS OD600	rRNA inh HTS RFP
C[C@H](CO)N1C[C@H](C)[C@@H](CN(C)S(=O)(=O)c2cn(C)cn2)Oc2ccc(NS(=O)(=O)c3cccs3)cc2C1=O	i	3.6	4.7	-0.7
C[C@@H]1CCCCO[C@@H](CN(C)S(=O)(=O)c2cccs2)[C@H](C)CN([C@H](C)CO)C(=O)c2cc(NC(=O)Cc3ccccc3)ccc2O1	i	-3.9	-7.5	1.9

(more compounds)
SMILES	FGF22 binding	rRNA inh HTS	rRNA inh HTS OD600	rRNA inh HTS RFP
Cc1noc(C)c1NC(=O)Nc1ccc2c(c1)C(=O)N([C@H](C)CO)C[C@@H](C)[C@H](CN(C)Cc1ccc(C(=O)O)cc1)OCCCC[C@@H](C)O2	i	2.1	5.1	0.4
COc1ccc(S(=O)(=O)N(C)C[C@H]2Oc3ccc(NS(=O)(=O)c4ccccc4)cc3C(=O)N([C@H](C)CO)C[C@H]2C)cc1	i	-5.3	-7.9	4.1
CC(=O)C1=C(C)N(Cc2ccc(F)cc2)C(=S)NC1c1cccc(F)c1 (stereo unspecified)	i	-17.6	-56.7	3.3
Cc1ccc(-c2ccc([C@@H]3[C@H](CO)N4CCCCN(Cc5ccccn5)C[C@@H]34)cc2)cc1	i	-4.2	-11.2	1.8
C[C@H](CO)N1C[C@H](C)[C@H](CN(C)S(=O)(=O)c2ccc(F)cc2)Oc2ccc(NS(=O)(=O)c3ccccc3)cc2CC1=O	i	-0.9	-1.9	3.4
C[C@@H]1CCCCO[C@@H](CN(C)C(=O)Nc2cccc3ccccc23)[C@@H](C)CN([C@H](C)CO)C(=O)c2cc(NS(=O)(=O)c3cn(C)cn3)ccc2O1	i	3.0	3.8	-2.0
CN(C)C(=O)C[C@H]1C[C@@H]2c3cc(NC(=O)Nc4ccccc4)ccc3O[C@@H]2[C@@H](CO)O1	i	-2.5	1.2	-1.8
COCC(=O)Nc1ccc2c(c1)C(=O)N(C)[C@H]1CC[C@H](CC(=O)N3CCc4ccccc4C3)O[C@H]1CO2	i	-0.1	11.6	-0.7
C=CCN=C1NC(c2ccccc2C(F)(F)F)C(C(=O)OC)=C(C)N1Cc1cccc(C(F)(F)F)c1 (stereo unspecified)	i	-43.6	-81.0	-15.4
COc1cccc(C(=O)N[C@H](C(=O)N2CCC[C@H]2C(=O)NCc2ccccc2)C(C)C)c1	i	12.9	10.0	5.3
CC(C)CC#Cc1ccc([C@H]2[C@H]3CN(C(=O)Cc4cccnc4)CC(=O)N3[C@H]2CO)cc1	i	4.5	4.7	-1.6
C[C@@H]1CCCCO[C@H](CN(C)C(=O)CCC(F)(F)F)[C@H](C)CN([C@@H](C)CO)C(=O)c2cc(NC(=O)CCCN(C)C)ccc2O1	i	-1.9	5.0	1.2
C[C@H](CO)N1C[C@H](C)[C@@H](CN(C)S(=O)(=O)c2ccc(Cl)cc2)OCCCC[C@H](C)Oc2ccc(NS(=O)(=O)c3ccc(Cl)cc3)cc2C1=O	i	-4.7	1.1	-8.2
O=C(C[C@@H]1CC[C@H]2[C@@H](COC[C@@H](O)CN2CCC(F)(F)F)O1)NCC1CCCCC1	i	-2.3	9.2	0.5
Cc1noc(C)c1NC(=O)Nc1ccc2c(c1)CC(=O)N([C@@H](C)CO)C[C@H](C)[C@H](CN(C)S(=O)(=O)c1cn(C)cn1)O2	i	-0.7	6.5	-0.5
CN(C)C(=O)C[C@H]1CC[C@@H]2[C@H](COC[C@H](O)CN2Cc2ccc(C(F)(F)F)cc2)O1	i	-0.6	-4.0	-4.2
CN1C(=O)c2cc(NC(=O)Nc3ccccc3Cl)ccc2OC[C@@H]2O[C@H](CC(=O)O)CC[C@H]21	i	3.0	9.5	0.2
Cc1noc(C)c1S(=O)(=O)N(C)C[C@@H]1Oc2ccc(NC(=O)Cc3ccccc3)cc2CC(=O)N([C@H](C)CO)C[C@H]1C	i	1.2	4.4	-0.5
COc1ccc(NC(=O)N(C)C[C@H]2OCCCC[C@@H](C)Oc3ccc(NC(=O)c4ccncc4)cc3C(=O)N([C@@H](C)CO)C[C@H]2C)cc1	i	-1.4	-4.1	-1.2
C[C@@H]1CCCCO[C@@H](CN(C)S(C)(=O)=O)[C@@H](C)CN([C@H](C)CO)C(=O)c2cc(NC(=O)Nc3ccc(F)cc3)ccc2O1	i	0.1	-3.2	-1.3
COc1ccc(NC(=O)N(C)C[C@@H]2OCCCC[C@@H](C)Oc3ccc(NC(=O)CCCCCC(=O)Nc4ccccc4N)cc3C(=O)N([C@H](C)CO)C[C@@H]2C)cc1	i	3.0	1.5	-0.9
CCCC(=O)Nc1ccc2c(c1)C(=O)N(C)[C@@H]1CC[C@@H](CC(=O)NCCN3CCCCC3)O[C@H]1CO2	i	5.4	8.1	1.3
COc1ccc(S(=O)(=O)Nc2cccc3c2O[C@H](CN(C)S(=O)(=O)c2ccccc2)[C@H](C)CN([C@@H](C)CO)C3=O)cc1	i	0.4	-4.2	1.7
CCCNC(=O)C[C@H]1C[C@@H]2c3cc(NC(=O)Nc4ccccc4)ccc3O[C@@H]2[C@@H](CO)O1	i	-2.6	-3.5	-2.1
CN1CCCCC(NC(=O)c2ccc3ccccc3c2)C1=O (stereo unspecified)	i	0.8	0.1	2.5
CNC(=O)C[C@@H]1CC[C@H]2[C@@H](COc3ccc(NC(=O)c4ccc(C(F)(F)F)cc4)cc3C(=O)N2C)O1	i	3.5	5.1	0.1
O=C(C1CC1)N1CC[C@@H]2[C@H](CO)Nc3ccc(C#Cc4ccc(F)cc4)cc3[C@@H]21	i	-4.3	5.8	-1.6
COc1ccc(NC(=O)Nc2ccc3c(c2)C(=O)N([C@H](C)CO)C[C@H](C)[C@H](CN(C)S(=O)(=O)c2cn(C)cn2)OCCCC[C@H](C)O3)cc1	i	0.5	3.8	-2.7
O=C(C[C@@H]1CC[C@@H]2[C@H](COC[C@@H](O)CN2Cc2ccc3c(c2)OCO3)O1)N1CCCCC1	i	0.8	5.6	-1.0
CCCC(=O)Nc1ccc2c(c1)C(=O)N(C)[C@@H]1CC[C@H](CC(=O)NCc3ccccc3F)O[C@@H]1CO2	i	0.8	-2.6	-0.3
C[C@H](CO)N1C[C@H](C)[C@@H](CN(C)Cc2ccccc2)OCCCC[C@H](C)Oc2ccc(NC(=O)c3ccccc3)cc2C1=O	i	-1.7	4.9	-2.5
C[C@H](CO)N1C[C@H](C)[C@H](CN(C)Cc2ccc3c(c2)OCO3)OCCCC[C@H](C)Oc2ccc(NS(=O)(=O)c3cccs3)cc2C1=O	i	0.7	9.0	-3.2
Cc1ccc(S(=O)(=O)Nc2ccc3c(c2)C(=O)N([C@@H](C)CO)C[C@H](C)[C@H](CN(C)Cc2ccccc2)OCCCC[C@H](C)O3)cc1	i	1.1	-8.7	2.6
CN1C(=O)c2cc(NC(=O)c3cccc(F)c3)ccc2OC[C@H]2O[C@@H](CC(=O)NC3CCC3)CC[C@H]21	i	-2.7	4.6	-0.7
C[C@@H]1CN([C@@H](C)CO)C(=O)c2cc(NS(=O)(=O)c3ccc(Cl)cc3)ccc2O[C@@H](C)CCCCO[C@@H]1CN(C)CC1CCCCC1	i	0.2	-20.4	10.3
C[C@@H]1CCCCO[C@H](CN(C)C(=O)Nc2ccc3c(c2)OCO3)[C@H](C)CN([C@@H](C)CO)C(=O)c2cc(NC(=O)Cc3ccccc3)ccc2O1	i	-0.7	-2.1	-1.0
CC(=O)N1C[C@@H](CO)[C@@H](N(C)C(=O)Nc2cccc3ccccc23)C[C@H]1c1ccccc1	i	10.4	11.6	1.1
COC(=O)C1=C(C)N(Cc2cccc(C(F)(F)F)c2)C(=NCc2ccc(OC)cc2)NC1c1ccc(F)cc1 (stereo unspecified)	i	-47.8	-80.4	-17.5
COc1ccc(CNC(=O)C[C@@H]2C[C@@H]3c4cc(NC(=O)CC5CC5)ccc4O[C@@H]3[C@H](CO)O2)cc1	i	1.4	-0.9	-1.7
N#Cc1ccc(-c2ccc([C@@H]3[C@@H]4CN(S(=O)(=O)Cc5ccccc5)C[C@H]3N4)cc2)cc1	i	-22.8	-55.0	5.4
Cc1noc(C)c1S(=O)(=O)Nc1ccc2c(c1)C(=O)N([C@@H](C)CO)C[C@H](C)[C@H](CN(C)CC1CC1)OCCCC[C@@H](C)O2	i	5.1	7.0	-2.5
Cc1noc(C)c1NC(=O)Nc1ccc2c(c1)CC(=O)N([C@@H](C)CO)C[C@@H](C)[C@H](CN(C)Cc1ccc(Oc3ccccc3)cc1)O2	i	-12.6	-41.8	10.4
Cc1ccc(C2c3c(n[nH]c3C(C)C)C(=O)N2c2ccccc2)cc1 (stereo unspecified)	i	-43.6	-75.9	-15.0

Three entries from above, bar-delimited.
compound | FGF22 binding | rRNA inh HTS | rRNA inh HTS OD600 | rRNA inh HTS RFP
COc1ccc(S(=O)(=O)N(C)C[C@H]2Oc3ccc(NS(=O)(=O)c4ccccc4)cc3C(=O)N([C@H](C)CO)C[C@H]2C)cc1 | i | -5.3 | -7.9 | 4.1
CC(=O)C1=C(C)N(Cc2ccc(F)cc2)C(=S)NC1c1cccc(F)c1 (stereo unspecified) | i | -17.6 | -56.7 | 3.3
Cc1ccc(-c2ccc([C@@H]3[C@H](CO)N4CCCCN(Cc5ccccn5)C[C@@H]34)cc2)cc1 | i | -4.2 | -11.2 | 1.8

Compound activity: PubChem, Broad Institute
